# Compound activity as filed in PubChem.
# Rce1 inhib: yeast Rce1p protease inhibitors, primary screen, biochemical, fluorescence, cell-free homogeneous; CAAX prenyl protease 2 (Saccharomyces cerevisiae (strain ATCC 204508 / S288c)), Q03530; yeast membranes, quenched prenylated peptide cleavage fluorescence; AID 2563, 2010; calls only; 290,000 compounds, 0.27% hits;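 active means fall in fluorescence gain of 50% or more versus controls, with final raw signal at or below 3038400; inconclusive means same 50% fall but final raw signal above 3038400; inactive means fall in fluorescence gain under 50%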;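 further: plate controls were neutral control wells for no effect and wells lacking membranes for full effect; tested at 10 µM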
# eIF4H inh: human eIF4H binding inhibitors, primary screen, translation initiation inhibitor project, biochemical, uHTS, fluorescence polarization. Eukaryotic translation initiation factor 4H (Homo sapiens), Q15056. eIF4H fluorescence polarization binding assay. inhibition, % at 35 µM. 290,000 compounds, 0.94% hits. AID 2012, 2009;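 active means 50% or more with normal probe brightness, or confirmed in later tests; inconclusive means above 50% with abnormal brightness, or retests that disagree; inactive means below 50% or failed in later tests; about a fifth of its hits are not listed in these tables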;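 further: calls also rest on retests at 20 µM and on dose response follow-up; 0% = protein and probe with vehicle and 100% = probe without protein; strong numbers were not always called active; many hits fall short of the cut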
# MT1-MMP act inh: blockers of MT1-MMP proenzyme processing, primary screen, HT1080 RFP-PRO-GFP cells, GFP/RFP fluorescence | Matrix metalloproteinase-14 (Homo sapiens), P50281 | GFP/RFP ratio fluorescence, overnight; percent of plate control window, DMSO zero | GFP/RFP ratio change, % at 20 µM | 360,000 compounds, 0.061% hits;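 active means GFP/RFP ratio change of at least 30% with cell ATP level not reduced by more than half and red fluorescence within 50% of control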; further: strong numbers were not always called active
#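 system = RFP-PRO-GFP reporter HT1080 cells | dosing = 20 µM single dose, 1% DMSO | timing = overnight cell settling, then overnight compound exposure, 37 °C, 5% CO2 | read-out basis = GFP/RFP fluorescence ratio | controls = DMSO and RFP-L50D-GFP cell wells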
# PABP polyA inh: PABP poly(A) RNA binding inhibitors, primary screen, biochemical, fluorescence polarization, uHTS; inhibition, % at 35 µM; 290,000 compounds, 1% hits;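 active means 50% or more with normal probe brightness, or confirmed in later tests; inconclusive means above 50% with abnormal brightness, or retests that disagree; inactive means below 50% or failed in later tests; about a fifth of its hits are not listed in these tables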;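 further: calls also rest on retests at 20 µM and on dose response follow-up; controls were probe without protein and protein plus probe with vehicle; some compounds called inactive have numbers as strong as hits; many hits fall short of the cut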
# Target sequence (P11940 whole entry, looked up): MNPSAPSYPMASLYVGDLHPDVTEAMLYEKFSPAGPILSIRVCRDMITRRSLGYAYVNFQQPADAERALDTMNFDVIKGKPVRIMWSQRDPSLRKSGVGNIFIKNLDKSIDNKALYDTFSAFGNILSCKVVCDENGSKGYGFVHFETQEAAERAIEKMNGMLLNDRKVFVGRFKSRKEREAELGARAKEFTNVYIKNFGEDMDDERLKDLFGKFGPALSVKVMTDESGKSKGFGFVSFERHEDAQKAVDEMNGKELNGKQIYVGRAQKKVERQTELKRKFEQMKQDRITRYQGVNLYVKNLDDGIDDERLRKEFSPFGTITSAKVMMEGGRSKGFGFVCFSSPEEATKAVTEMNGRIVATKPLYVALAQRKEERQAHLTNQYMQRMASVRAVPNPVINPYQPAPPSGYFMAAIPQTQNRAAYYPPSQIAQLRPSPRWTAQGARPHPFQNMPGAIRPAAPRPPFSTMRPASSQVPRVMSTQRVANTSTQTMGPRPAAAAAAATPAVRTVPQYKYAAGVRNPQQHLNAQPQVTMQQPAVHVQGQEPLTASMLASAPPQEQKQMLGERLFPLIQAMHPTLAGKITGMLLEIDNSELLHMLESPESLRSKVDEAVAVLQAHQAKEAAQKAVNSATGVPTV
# CSC inhib: cancer stem cell viability inhibitors, primary screen, luminescence. cancer stem cell-like cells viability. inhibition, % at 7.5 µM. 300,000 compounds, 1.1% hits;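 active means mean at 75% or more and at least half the replicates too; inconclusive means mean and replicates disagree; tested in HMLE shEcad cells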;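 further: 0% = median of negative and 100% = median of positive control wells; the first replicate is given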
# Yeast UUG start: modulators of yeast start codon fidelity, primary screen, whole organism, S. cerevisiae, single point, plate reader | S. cerevisiae UUG-firefly luciferase reporter, luminescence/redox ratio | activity score, % at 18.7 µM | 350,000 compounds, 0.13% hits | AID 602363, 2012;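 active means replicate mean at a twofold rise or more, about +100% in these data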;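 further: firefly luciferase made from a UUG start codon reports start codon fidelity; reporter light over untreated wells divided by growth signal over untreated wells; some hits fall short of that in this replicate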
# HIV Env fusion: inhibitors of HIV-1 Env-driven cell-cell fusion, primary screen, HeLa-JRFL effector, CEM21 target cells, luciferase; inhibition, % at 12.3 µM; 360,000 compounds, 1.1% hits;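 active means mean replicate inhibition score of at least 50 and every replicate individually at or above 50; inconclusive means only one of the two criteria met; inactive means mean below 50 and not all replicates reaching 50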;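 further: 0% = plate neutral controls and 100% = maraviroc near 300 nM; one replicate is shown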
# eIF4H inh retest: second read-out of eIF4H inh, no call of its own (marks repeat the call); inhibition, %; compound at 20 µM; confirmation average;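 mean of two retest wells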
# PABP polyA inh retest: recorded beside PABP polyA inh, whose call it bears; inhibition, %; compound at 20 µM; confirmation repeats;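 mean of two retest wells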
# MT1-MMP act inh RFP: recorded beside MT1-MMP act inh, whose call it bears; RFP signal change, %; measured here: RFP expression control read;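 0 = vehicle wells; hits needed this value within 50% of zero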
# The depositor's hits bear a star; i = inactive; ? = inconclusive; · = no result given.
SMILES,Rce1 inhib,eIF4H inh,MT1-MMP act inh,MT1-MMP act inh RFP,PABP polyA inh,CSC inhib,Yeast UUG start,HIV Env fusion,others
CSc1nc2ccc(NC(=O)c3ccc(=O)n(C)n3)cc2s1,i,-3,6,2,-2,18,·,-8,
Cc1oc(C(C)(C)C)cc1C(N)=O,i,-4,1,3,18,-9,-6,-1,
CC1(c2ccc(Cl)cc2)NC(=O)N(CC(=O)Nc2cccnc2Cl)C1=O (stereo unspecified),i,·,0,7,·,-30,-10,-48,
COc1ccc2[nH]c(CN3CCC(CO)(CCOc4ccccc4)CC3)c(C)c2c1,i,-6,1,0,-9,1,4,-13,
CCc1cc(C)cc(OCCNC(=O)c2cncc(Br)c2)c1,i,-6,-2,-4,-2,2,-6,·,
Cc1csc(NC(=O)CCC(=O)c2cccs2)n1,i,0,0,5,-4,-13,·,1,
NS(=O)(=O)c1cccc(NC(=O)c2cc(=O)c3ccccc3o2)c1,i,0,-1,1,0,2,0,-3,
CCCCc1c(O)nc(SCC(=O)Nc2cccc3ccccc23)n(-c2ccccc2OC)c1=O,i,-3,0,5,7,-3,4,-4,
COc1ccc(C2(CNS(=O)(=O)c3ccccc3)CCOCC2)cc1,i,-8,-3,-1,-4,4,·,23,
CCOc1ccc(C(=O)Cc2ccc3oc(C(=O)O)cc3c2)c(O)c1,i,4,-11,0,5,·,-13,·,
O=C(/C=C/c1ccco1)NCc1ccc(F)cc1,i,3,-2,9,12,-6,·,-6,
O=C(O)C1Cc2[nH]cnc2C(c2ccc(F)cc2)N1 (stereo unspecified),i,-4,0,3,2,-10,·,-12,
CCC1CCCCN1CCCNC(=O)c1cn(CC)c2ccc(S(=O)(=O)N(C)C3CCCCC3)cc2c1=O (stereo unspecified),i,-2,-8,-3,2,14,-16,6,
CCOC(=O)N1CCc2c(sc3c2c(=O)n(Cc2ccccc2)c(=O)n3CC(=O)NCC2CCCO2)C1 (stereo unspecified),i,2,0,0,9,-3,-13,1,
CC(=O)N(c1ccccc1)c1nc2ccccc2s1,·,·,2,0,·,·,6,-16,
COc1ccc(N=Cc2c(OC)ccc3ccccc23)cc1,i,·,1,2,·,13,-10,-13,
CC(=O)NNc1nc2ccccc2s1,i,-5,2,7,8,0,-10,·,
Cc1cccc(NS(=O)(=O)c2ccc(C)c(C(=O)N(C)C)c2)c1,·,·,2,4,·,-6,-28,·,
CN(C)S(=O)(=O)n1cc(/C=C(\NC(=O)c2ccccc2F)C(=O)NCCN2CCOCC2)c2ccccc21,·,·,1,1,·,·,-19,-2,
Cc1noc(NS(=O)(=O)c2ccc(NC(=O)CSc3ncccn3)cc2)c1C,i,-1,-2,7,-6,0,-12,-6,
O=C(NCCN1CCN(C(=O)c2cc3ccccc3oc2=O)CC1)c1cc2ccccc2oc1=O,i,-11,4,-3,-12,-14,-15,·,
CCCCc1ccc(NC(=S)NN2CCOCC2)cc1,i,13,3,1,-2,-1,·,5,
CCCCc1c(C)nc2ccc(C(=O)OCC)cc2c1Cl,i,3,-5,-4,120*,1,8,-3,eIF4H inh retest=38;PABP polyA inh retest=69*
O=C1C(=Cc2cccn2-c2ccccc2)C(=O)c2ccccc21,i,?,-124,2,-5,-14,-3,16,
Cc1ccc(S(=O)(=O)N2CCOCC2)cc1NC(=O)COc1ncnc2ccccc12,i,-3,-2,3,12,4,·,17,

# Structural class, the compounds so far containing an NH in an aromatic ring.
SMILES,Rce1 inhib,eIF4H inh,MT1-MMP act inh,MT1-MMP act inh RFP,PABP polyA inh,CSC inhib,Yeast UUG start,HIV Env fusion,others
COc1ccc2[nH]c(CN3CCC(CO)(CCOc4ccccc4)CC3)c(C)c2c1,i,-6,1,0,-9,1,4,-13,
O=C(O)C1Cc2[nH]cnc2C(c2ccc(F)cc2)N1 (stereo unspecified),i,-4,0,3,2,-10,·,-12,

# 3 structures from above, sorted by formula weight, ascending.
SMILES,Rce1 inhib,eIF4H inh,MT1-MMP act inh,MT1-MMP act inh RFP,PABP polyA inh,CSC inhib,Yeast UUG start,HIV Env fusion,others
O=C1C(=Cc2cccn2-c2ccccc2)C(=O)c2ccccc21,i,?,-124,2,-5,-14,-3,16,
COc1ccc(C2(CNS(=O)(=O)c3ccccc3)CCOCC2)cc1,i,-8,-3,-1,-4,4,·,23,
O=C(NCCN1CCN(C(=O)c2cc3ccccc3oc2=O)CC1)c1cc2ccccc2oc1=O,i,-11,4,-3,-12,-14,-15,·,

# (listing goes on)
SMILES,Rce1 inhib,eIF4H inh,MT1-MMP act inh,MT1-MMP act inh RFP,PABP polyA inh,CSC inhib,Yeast UUG start,HIV Env fusion,others
Cc1ccc(S(=O)(=O)n2nc(C)c(S(=O)(=O)N3CCCCC3)c2C)cc1,i,-5,1,3,6,0,-6,-7,
COc1ccc2c(Cl)c(-c3nnc4n3CCCCC4)sc2c1,i,-5,2,-6,-1,-11,-7,·,
C=CCOc1ccc(/C=N/NC(=O)c2cc3c(OC)cc(OC)cc3[nH]2)cc1,i,4,6,-5,-1,48,-3,17,
O=[N+]([O-])c1cc(S(=O)(=O)N2CCCC2)ccc1O,i,9,-1,0,2,-12,·,-19,
Cc1cc(C(=O)OCC(=O)Nc2cc(C)on2)c2ccccc2n1,i,1,-1,-4,0,-6,-9,-17,
OCCCNc1c2c(nc3cc(-c4ccc(Cl)cc4)nn13)CCC2,i,-12,4,-3,-3,62,·,1,
CC1CC(C)CN(c2ncnc3c2cnn3Cc2ccc(Cl)cc2)C1 (stereo unspecified),i,1,2,-10,-1,68,-3,·,
Cc1cccc(NC(=O)c2cc(=O)[nH]c3ccccc23)c1,i,-5,-1,4,-9,-8,-5,13,
O=C(NCc1ccc2c(c1)OCO2)C1CC(=O)N(C2CCCCCC2)C1 (stereo unspecified),i,-4,1,3,-8,-6,·,·,
Cc1noc(C)c1COc1ccccc1C(=O)N(C)CC(=O)Nc1ccc(F)cc1,i,·,1,-20,·,·,-43,-7,
CCCC(=O)Nc1sc(C)c(C)c1C#N,i,-12,0,0,-1,-20,·,-15,
CCOC(=O)N1CCC(N2CCCC(CO)(Cc3cccc(Cl)c3)C2)CC1 (stereo unspecified),i,5,-8,-4,-7,6,·,7,
CC1CC(C)CN(C(=O)CSc2nnc(-c3ccc(F)cc3)o2)C1 (stereo unspecified),i,14,-4,-1,5,·,-18,-10,
O=C(CNS(=O)(=O)c1c(Cl)cccc1Cl)OCC(=O)c1ccc[nH]1,i,79,-2,7,36,-4,-2,18,eIF4H inh retest=8;PABP polyA inh retest=24
CCOC(=O)c1oc2ccc(S(=O)(=O)N3CCOCC3)cc2c1C,i,0,0,-3,-4,-3,-23,·,
O=C1C2C3C=CC(CC3)C2C(=O)N1c1ccccc1[N+](=O)[O-] (stereo unspecified),i,-2,1,-2,13,·,-9,4,
CCC(=O)Nc1ccc(C(=O)OCC(=O)c2cccs2)cc1,i,-2,2,4,-15,11,-14,-4,
CC(OC(=O)CCC1CCCC1)C(=O)Nc1ccccc1[N+](=O)[O-] (stereo unspecified),i,·,1,0,·,-4,0,·,
CC(=C/c1ccccc1)/C=N/NC(=O)c1ccc2nc[nH]c2c1,i,-5,3,3,-3,2,·,·,
O=C(CN1CCOCC1)Nc1ccc(Cl)cn1,i,-18,1,-1,0,-6,-4,1,
CCOC(=O)c1ccc(-c2c(-c3ccccc3OC)sc3ccc(OC)cc23)cc1F,·,·,-3,0,·,26,18,2,
CCOC(=O)C1=C(C(=O)OCC)N(Cc2ccccc2)CCC1=O,·,·,0,1,·,·,-3,-9,
Cc1ccc(-c2nn(-c3ccccc3)cc2C2CC(c3ccccc3)=NN2C(=O)CCC(=O)O)cc1 (stereo unspecified),i,-1,19,-5,-6,-2,-9,14,
CCCOC(=O)c1c(NC(=O)C2CCCO2)sc(C(=O)OC)c1C (stereo unspecified),i,0,-6,-7,0,23,-9,-13,
COc1cc(C(=O)NCc2cn3ccccc3n2)cc(OC)c1OC,i,2,7,5,36,-6,-6,·,

# The closing 7 entries of the section above open the next one.
SMILES,Rce1 inhib,eIF4H inh,MT1-MMP act inh,MT1-MMP act inh RFP,PABP polyA inh,CSC inhib,Yeast UUG start,HIV Env fusion,others
CC(=C/c1ccccc1)/C=N/NC(=O)c1ccc2nc[nH]c2c1,i,-5,3,3,-3,2,·,·,
O=C(CN1CCOCC1)Nc1ccc(Cl)cn1,i,-18,1,-1,0,-6,-4,1,
CCOC(=O)c1ccc(-c2c(-c3ccccc3OC)sc3ccc(OC)cc23)cc1F,·,·,-3,0,·,26,18,2,
CCOC(=O)C1=C(C(=O)OCC)N(Cc2ccccc2)CCC1=O,·,·,0,1,·,·,-3,-9,
Cc1ccc(-c2nn(-c3ccccc3)cc2C2CC(c3ccccc3)=NN2C(=O)CCC(=O)O)cc1 (stereo unspecified),i,-1,19,-5,-6,-2,-9,14,
CCCOC(=O)c1c(NC(=O)C2CCCO2)sc(C(=O)OC)c1C (stereo unspecified),i,0,-6,-7,0,23,-9,-13,
COc1cc(C(=O)NCc2cn3ccccc3n2)cc(OC)c1OC,i,2,7,5,36,-6,-6,·,
CN(CCOc1ccc(Cl)cc1)Cc1cccc(S(=O)(=O)N(C)C)c1,·,-12,1,-20,0,-4,-16,27,
COc1ccc(/C=N/NC(=O)C(=O)NCc2cccnc2)cc1,i,-10,1,1,-8,-7,1,0,
CC(=O)Nc1ccc(SC[C@H](Cc2ccccc2)N2CC[C@@H](C)CCC2=O)cc1,·,·,1,-3,·,1,-9,1,
Cn1nnc(NC(=S)NC(=O)c2ccc(-c3ccc(Br)cc3)o2)n1,i,-2,7,4,-8,12,-17,-23,
Nc1c(Br)cc2oc(-c3ccccc3)nc2c1Br,i,15,0,-1,28,-7,-11,·,
OC1(c2ccc(Cl)cc2)CCN(Cc2nc(-c3cnccn3)no2)CC1,i,-2,0,0,-11,-3,-13,4,
COc1ccc(N(C(=O)CNC(=O)c2ccco2)C(C(=O)NCC2CCCO2)c2ccc(OC)c(OC)c2)cc1 (stereo unspecified),i,-9,2,4,-7,20,-11,-17,
Oc1ccc(C=Nc2ccccc2-c2nc3ccccc3[nH]2)c(O)c1,?,3,12,1,8,·,-24,-44,
O=C1CC(=O)N2CCSC2=N1,·,·,0,-2,·,·,-18,13,
COc1ccc(NC(=O)COC(=O)CNC(=O)C2CCCCC2)cc1,i,4,1,4,-10,-28,·,-16,
CCCCOc1ccc(C(=O)CCN2CCCCC2)cc1,i,-12,1,2,-11,37,4,-14,
CCc1cccc(NC(=O)C(NC(=O)C2CCCCC2)C(C)C)c1 (stereo unspecified),i,-4,2,-2,-6,-8,·,-42,
Fc1ccc(-c2nnc(SCc3cccnc3)o2)cc1,i,2,2,0,3,4,·,9,
CC1CN(S(=O)(=O)c2cccc(C(=O)OC/C(O)=C(\C#N)c3nc4ccccc4[nH]3)c2)CC(C)O1 (stereo unspecified),i,11,-2,0,20,6,·,-16,
